# TRPML1 inh: qHTS for Inhibitors of the Human Mucolipin Transient Receptor Potential 1 (TRPML1); Mucolipin-1 (Homo sapiens), Q9GZU1; TRPML1-inducible cells, Ca2+ dye fluorescence, FDSS; stronger effect = lower value; inhibition of EC80 agonist-evoked calcium signal; activity change, negative = inhibition, % (no concentration beside the values); 390,000 compounds, 0.02% hits; AID 624415, 2012; in the data active means activity change below about -50%; inconclusive means about -30% to -50%; inactive means above about -30%;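 also: stimulus is agonist 54-4 at its EC80 concentration; % is scaled to controls: 0 for no effect and ±100 for the full control effect; compound concentration not given in the record; the text of the record puts the active cut at -80%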
#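 Tet-induced TRPML1-DL cells loaded with Ca8 no-wash calcium dye were read kinetically on FDSS. Compound addition was followed by EC80 agonist 54-4 (4 uM final); inhibition was read over 110 s.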
# Sfp inh: qHTS Assay for Inhibitors of Bacillus subtilis Sfp phosphopantetheinyl transferase (PPTase) | 4'-phosphopantetheinyl transferase ffp (Bacillus subtilis), Q9F4F7 | Biochemical Sfp PPTase activity, qHTS | Potency, µM, without a hit: max response, negative = inhibition, actives largely listed as inhibitors | 310,000 compounds, 3.5% hits; active = well fitted inhibition curve with a large enough effect; inconclusive = small, poorly fitted or top-dose-only effect, or another doubt; inactive = no such curve, though single readings can be large or run the other way;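 also: the enzyme is Sfp with the accession as filed and its product quenches rhodamine fluorescence; potency is read from the fitted curve at half-maximal effect; 0% = enzyme reaction without inhibitor and -100% = no enzyme wells; top concentration of the series not given in the record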
#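 Fluorescence-quenching assay: 15 nM Sfp-PPTase preincubated 15 min at room temperature with compound, then 5 uM rhodamine-CoA and 12.5 uM BHQ-2-labelled YbbR peptide added. Fluorescence (ex 525/em 598 nm) read at start and after 30 min; difference gives rate.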
# PINK1 expr mod: A Quantitative High throughput Screen to Identify Chemical Modulators of PINK1 Expression; 410,000 compounds, 0.2% hits; Potency, µM (doses to about 76.6 µM), without a hit: at the highest dose activation (PINK1 increase), hits mostly activators; AID 624263, 2012; PINK1 immunofluorescence, high-content cytometry, 24 h; active = well fitted activation curve with a large enough effect; inconclusive = small, poorly fitted or top-dose-only effect; inactive = flat fitted curve, though single readings scatter; cell line not stated here;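 also: potency is read from the fitted curve at half-maximal effect; % of control where 0% means no effect; nearly all actives have a fitted effect of over 65% in size; a mitochondrial uncoupler was the plate control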
#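 Stable cell line treated 24 h with compounds at 5 concentrations (CCCP controls), then fixed and immunostained for PINK1 plus nuclear and cell stains; PINK1 immunofluorescence quantified by laser-scanning microplate cytometry.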
# TRPV1 PAM: HTS Assay for Compounds that Act as Potentiators of the Vanilloid Receptor 1; Transient receptor potential cation channel subfamily V member 1 (Homo sapiens), Q8NER1; TRPV1-expressing cells, Fluo-8 calcium influx, capsaicin EC20 potentiation; host cell line not named in the record; control for the full effect not named in the record; potentiation, % at 8.33 µM; 320,000 compounds, 0.02% hits; active means potentiation above 80%; inconclusive means 30% to 80%; inactive means below 30%; also: 0% is about no effect
# Target sequence (Q8NER1 whole entry, looked up): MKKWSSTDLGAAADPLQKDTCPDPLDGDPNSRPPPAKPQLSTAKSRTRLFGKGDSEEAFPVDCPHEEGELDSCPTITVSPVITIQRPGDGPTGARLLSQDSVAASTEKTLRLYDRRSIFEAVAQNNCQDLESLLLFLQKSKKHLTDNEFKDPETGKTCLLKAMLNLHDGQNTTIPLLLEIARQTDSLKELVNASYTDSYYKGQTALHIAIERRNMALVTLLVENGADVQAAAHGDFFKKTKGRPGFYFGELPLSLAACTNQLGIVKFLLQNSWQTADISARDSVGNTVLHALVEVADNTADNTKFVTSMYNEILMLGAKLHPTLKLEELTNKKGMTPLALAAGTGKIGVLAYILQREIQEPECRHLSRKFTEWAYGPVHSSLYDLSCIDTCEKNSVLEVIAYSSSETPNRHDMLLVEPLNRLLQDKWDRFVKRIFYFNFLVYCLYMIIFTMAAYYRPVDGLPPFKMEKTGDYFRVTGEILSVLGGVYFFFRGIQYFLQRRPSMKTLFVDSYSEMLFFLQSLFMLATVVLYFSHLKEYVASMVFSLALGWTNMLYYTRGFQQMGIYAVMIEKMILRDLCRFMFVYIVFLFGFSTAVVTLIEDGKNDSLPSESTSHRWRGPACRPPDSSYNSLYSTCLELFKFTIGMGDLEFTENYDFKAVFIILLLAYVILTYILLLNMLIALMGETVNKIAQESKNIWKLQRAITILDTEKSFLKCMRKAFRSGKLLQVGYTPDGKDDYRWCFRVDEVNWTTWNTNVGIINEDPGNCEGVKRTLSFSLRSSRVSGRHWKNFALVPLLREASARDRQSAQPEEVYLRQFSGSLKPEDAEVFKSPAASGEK
#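 Fluo-8 calcium influx in TRPV1-expressing cells, kinetic read (ex 480/em 520 nm). Compound added and read 3 min for agonist activity, followed by capsaicin at EC20 final and 2 min further read for enhancement.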
# Menin MLL FP FL: qHTS Assay for Inhibitors Targeting the Menin-MLL Interaction in MLL Related Leukemias: Competition With Fluorescein Labeled MLL-derived Peptide; Fluorescence polarization, fluorescein-MLL peptide displacement from menin; 290,000 tested, under 10 active; AID 1766, 2009; FP activity change, % at 61.4 µM; inconclusive = falling polarisation curve, or a change in total fluorescence; inactive = total fluorescence flat and polarisation flat or rising; no compound was filed as active; the % refers to the polarisation; negative = inhibition;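 also: % of control where 0% means no effect; inhibitors lower the polarisation; unlabelled MLL peptide was the positive control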
# ClpP mod: qHTS Assay for Activators of ClpP | ATP-dependent Clp protease proteolytic subunit (Bacillus subtilis (strain 168)), P80244 | purified B. subtilis ClpP, FRET peptide cleavage, 20 min | Potency, µM (titrated, usually from 57.5 µM), inactives show top-dose activity change, negative = active | 340,000 compounds, 1.9% hits; active = well fitted falling curve with a large enough effect; inconclusive = small, poorly fitted or top-dose-only effect; inactive = no such curve, though single readings can be large or run the other way; also: potency is read from the fitted curve at half-maximal effect; the source files actives as falling curves though it sought activators and does not explain the sign; nearly all actives have a fitted effect of over 65% in size; many hits overshoot -100%
# Target sequence (P80244 whole entry, looked up): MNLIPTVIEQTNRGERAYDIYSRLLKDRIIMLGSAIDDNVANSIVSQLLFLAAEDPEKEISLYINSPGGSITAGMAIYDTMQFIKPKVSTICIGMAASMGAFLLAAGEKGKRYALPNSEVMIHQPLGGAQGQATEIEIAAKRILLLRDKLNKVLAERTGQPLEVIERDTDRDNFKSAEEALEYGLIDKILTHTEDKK
#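 ClpP 10 microg/mL final, pH 8 Tris/KCl buffer with BSA, glycerol, Tween-20; compound pinned in; FRET-FV substrate; RT 20 min; Ex320/Em430; ΔFRET vs ADEP 5.8 microM, DMSO, no enzyme.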
# TRPML1 ag: qHTS for Agonists of the Human Mucolipin Transient Receptor Potential 1 (TRPML1). Mucolipin-1 (Homo sapiens), Q9GZU1. TRPML1-expressing cells, Ca2+ dye fluorescence, FDSS; host cell line not named in the record; reference of the full effect not given here. activation, % (concentration not given with the values). 410,000 compounds, 0.12% hits. AID 624414, 2012; in the data active = activation above about 50%; inconclusive = about 30% to 50%; inactive = below about 30%; also: 0% is about no effect; the text of the record puts the active cut at 80%
#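 Agonist activity was taken from a 110 s kinetic Ca2+ dye read on the FDSS after pinning compounds onto TRPML1-DL cells. The cells were seeded at 1,500/well with Tet inducer, incubated about 16 h, then dye-loaded at room temperature.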
# * = called active by the depositor; ? = inconclusive; . = not tested or not shown; & = joins results of further samples; [ ] = another dose, or the depositor's remark.
SMILES,TRPML1 inh,Sfp inh,PINK1 expr mod,TRPV1 PAM,Menin MLL FP FL,ClpP mod,TRPML1 ag
COc1ccccc1NC(=O)Nc1nc(C(N)Cc2ccc(Cl)cc2)cs1 (configuration not stated),?,.,-1.0%,.,.,-3.8%,0.2
COc1ccc([C@@H]2CC(=O)c3c(O)cc(O[C@@H]4OC(CO[C@@H]5OC(C)[C@H](O)[C@H](O)C5O)[C@@H](O)[C@@H](O)C4O)cc3O2)cc1O (some centres not stated),2,.,2.4%,-6,.,1.7%,-0.8
O=C(c1ccc(OCC2CCCO2)cc1)N1CCN(c2ccccc2)CC1 (configuration not stated),-1,10%,-1.1%,-11,1.8,0.7%,-0.4
CCC1CCCCN1CCCNC(=O)CS(=O)Cc1nc(-c2ccc(OC)c(OC)c2)oc1C (configuration not stated),-18,7%,-0.9%,19,.,4.1%,0.7
O=C(CN1C(=O)NC2(CCCC2)C1=O)Nc1ccccc1,11,12%,0.0%,?,-2.0,.,0.2
Cc1ccc(NCc2nnc(SCC(=O)NCc3ccco3)n2CC2CCCO2)c(C)c1 (configuration not stated),19,5%,-2.3%,5,3.7,-0.3%,0.1
CCOC(=O)c1c(S(=O)(=O)N2CCCC(C(=O)N(C)Cc3ccccc3)C2)c(C)n(C)c1C (configuration not stated),-25,.,5.4%,.,.,1.8%,-1.2
Cc1cccc(S(=O)(=O)c2cn(Cc3ccccc3)c3cc(N4CCCCC4C)c(F)cc3c2=O)c1 (configuration not stated),30,.,-6.4%,.,.,4.6%,1.1
Cc1ccc(C(=O)COC(=O)CNC(=O)Cc2ccccc2)cc1,14,5%,-0.8%,23,.,-2.2%,-0.4
O=C(CN1C(=O)CC(c2ccccc2)=Nc2ccccc21)Nc1ccc(Br)cc1,-3,.,5.5%,.,.,-4.0%,1.2
CC(=O)Nc1ccc(C(=O)OCC(=O)Nc2ccccc2Sc2ccccc2)cc1,8,-12%,1.7%,3,2.2,-1.1%,0.4
CCCCC(=O)Nc1cc(C)c2c(=O)oc3ccccc3c2n1,-5,-2%,5.6%,-11,12,-1.3%,0.0
CC1(C)CC(=O)C(C=NC(CCC(N)=O)C(=O)O)=C(O)C1 (configuration not stated),-5,20%,-1.5%[38.3 µM],3,0.5,-0.9%,-0.2
Cc1c(N=C2SCC(=O)N2/N=C\c2ccc(Br)cc2)c(=O)n(-c2ccccc2)n1C,-4,11%,-0.3%,2,2.6,.,-0.5
O=C(O)CCCn1cc(NC(=O)c2c(F)cccc2F)cn1,-6,6%,0.3%,?,-0.1,.,-0.1
Cc1cc(C)nc(SCC(=O)N/N=C/c2cccnc2)n1,15,4%,0.7%,8,.,-0.6%,-0.3
C/C(=N/Nc1nc(-c2ccccc2)cc(-c2ccccc2)n1)c1ccc(N)cc1,.,-21%,.,-22,-0.4,.,.
COc1ccc(OC)c(NC(=O)Nc2c(O)ccc3ccccc23)c1,27,.,0.0%,.,.,-10%,1.3
CCS(=O)(=O)Nc1cccc(-c2nc3cccnc3s2)c1,12,6%,-0.4%,-1,0.0,-1.8%,-0.3
COc1cccc(C(=O)Nc2c3c(nn2-c2ccc(Cl)cc2)CS(=O)(=O)C3)c1OC,36,0%,2.5%,-5,5.0,-1.3%,-0.9
CCn1c2ccc(F)cc2c2nnc(SCCN3CCCCC3)nc21,-10&7,2%,2.2%&-0.1%,7&1,1.6,-3.9%,-0.5&1.4
COc1cc(NC(=O)CCc2nnc3ccc(N4CCN(C)CC4)nn23)cc(OC)c1,-7,21%,1.5%,24,.,-0.3%,0.0
COC(=O)[C@]12CCCCC=C1N(Cc1ccco1)C(=O)[C@H](CC(=O)NCc1cccc3ccccc13)C2,.,.,-0.5%,.,.,-4.7%,-0.7
COc1cccc2c1OC1(CCN(C(C)C)CC1)N1N=C(c3cccnc3)CC21 (configuration not stated),-8,8%,-1.4%,13,3.0,.,0.5
Cc1nc2c(C(=O)NCc3ccccc3)cnn2c(C)c1Cc1ccc(F)cc1,49,.,-1.6%,.,.,3.9%,1.9
SMILES,TRPML1 inh,Sfp inh,PINK1 expr mod,TRPV1 PAM,Menin MLL FP FL,ClpP mod,TRPML1 ag
O=C(Nc1cc(Cl)ccc1Oc1ccccc1)c1ccccc1F,43,-20%,13%,-5,1.3,-10%,3.3
COc1cc(S(=O)(=O)n2cnc(C)c2)ccc1Cl,8,-23%,0.7%,-15,0.1,.,-0.4
COc1ccc(C(=O)C[n+]2cccc(C(N)=O)c2)cc1,-4,22%,0.5%,10,0.5,2.2%,1.3
Clc1ccc(Nc2nc3ccccc3n3nnnc23)cc1,4,8%,25%[38.3 µM],2,1.0,10%,1.2
CCCc1nc2c3ccccc3ccn2c1Cc1ccccc1C(F)(F)F,.,.,7.2%,.,.,4.9%,0.4
COC(=O)C1=CCCCC(O)=C1C(=O)OC,36,.,1.9%,.,.,-3.9%,-0.1
Cc1ccccc1NC(=O)C1c2ccccc2Oc2ccccc21,-1,-16%,3.8%,-5,-1.5,-1.2%,0.7
Cc1cc(NC(=O)CCC(=O)N(CCc2ccccc2)C(C(=O)NC2CCCC2)c2ccco2)no1 (configuration not stated),11,-2%,1.3%,1,3.3,0.8%,0.2
Cc1ccc(OCC(=O)N2CCN(S(=O)(=O)c3ccccc3[N+](=O)[O-])CC2)cc1,-5,14%,1.1%,10,1.5,.,-0.6
Oc1[nH]c2ccccc2c1/C=N/N1CCCCC1,10,-20%,0.0%,-5,1.9,-7.9%,-0.1
CCCC(=O)Nc1nnc(SCC(=O)Nc2ccc3c(c2)OCCO3)s1,-11,15%,5.2%,17,-4.6,.,-0.1
CC(=O)N/C(=C\c1ccc(F)cc1)C(=O)OCc1ccccc1,-1,10%,2.0%,-11,1.4,1.3%,-0.6
Cc1ccc(S(=O)(=O)NCc2ccc(C(=O)NC3CCC(O)CC3)cc2)cc1C (configuration not stated),-13,.,-1.2%,-5,.,-3.0%,0.7
COc1ccc(NC2C=CS(=O)(=O)C2)cc1 (configuration not stated),-6,2%,0.8%,6,1.7,-0.4%,-0.3
O=Cc1cccc(OCc2cn(CC(=O)c3ccc(O)cc3)nn2)c1,-1,.,3.1%,.,.,-2.2%,-0.2
O=C1C2C3CC4C5C3C1C5C1(SCCS1)C42 (configuration not stated),.,.,4.5%,.,.,-0.2%,-0.7
CNC(=O)c1[nH]cnc1C(=O)Nc1ccc(F)cc1,-2,1%,0.2%,8,5.2,3.1%,2.2
CCn1c(=O)c(-c2nc3ccccc3[nH]2)c(O)c2ccccc21,11,8%,3.6%,16,-0.2,.,-0.1
COC(=O)c1cc(Cl)ccc1NC(=O)CSc1ncc(S(=O)(=O)c2ccc(Br)cc2)c(=O)[nH]1,10,.,0.6%,.,.,-6.8%,0.0
CCOC(=O)NC(=O)/C(C#N)=C\Nc1ccc(Cl)cc1Cl,-12,13%,-1.8%,-5,1.6,.,-0.6
O=C1C(=Cc2ccc(Cl)cc2)Cc2ccccc21,.,.,1.8%,.,.,2.6%,-0.2
CN(C)S(=O)(=O)N(CC(=O)NCCSCc1ccccc1)c1ccccc1,10&10,-4%,-0.9%&-0.7%,-6,-1.7,-0.8%,-0.6&-0.7
NS(=O)(=O)c1ccc(CCNC(=O)CCCCCn2c(=S)[nH]c3ccc(Br)cc3c2=O)cc1,-10,4%,2.5%,12,0.4,-0.7%,0.1
C/C=C/CSc1nc2c(c(=O)[nH]c(=O)n2C)n1CCC,-9,11%,-3.3%,7,1.5,-1.1%,2.0
CCc1ccc(NC(=O)CSC2=C(C#N)C(c3ccc4c(c3)OCO4)CC(=O)N2)cc1 (configuration not stated),10,.,-1.0%[38.3 µM],.,.,0.4%,-0.3
SMILES,TRPML1 inh,Sfp inh,PINK1 expr mod,TRPV1 PAM,Menin MLL FP FL,ClpP mod,TRPML1 ag
COC(=O)c1ccc2c(=O)n(Cc3ccc(C(=O)NC(C)C)cc3)c(=S)[nH]c2c1,7,3%,15%,-1,-6.0,.,-1.3
Cc1cccc(C)c1N(CC(=O)NC1CCCCC1)C(=O)c1csnn1,12,-9%,0.3%,21,-5.2,1.4%,0.2
CCC(=O)N(Cc1ccc(S(N)(=O)=O)cc1)C1CC(=O)N(c2ccccc2)C1=O (configuration not stated),-13,12%,-0.9%,-15,0.0,0.1%,1.2
CCOc1cc(S(=O)(=O)NC2CC2)c(OCC)cc1-n1cnnn1,-2,3%,-2.2%[38.3 µM],6,-4.6,32µM*,0.3
CCn1c(=O)c(=O)[nH]c2c(=O)oc3ccc(S(=O)(=O)Nc4ccccc4)cc3c21,-10,25%,-1.2%,-8,0.0,?,-0.8
COCCCn1c(SCC(=O)O)nc2cc(OC)c(OC)cc2c1=N,39,16%,0.2%,8,3.1,.,0.1
CC(C)(O)/C=C1/Oc2ccccc2C1N1CCCCC1 (configuration not stated),-6,4%,1.1%,1,1.5,-15%,-0.8
CCc1ccccc1NC(=O)c1cccc(NC(=O)/C=C/c2ccco2)c1,1,20µM*,-1.6%,3,26,-0.2%,2.4

# Filtered by structure, the entries above with a furan ring, fused or not (4)
SMILES,TRPML1 inh,Sfp inh,PINK1 expr mod,TRPV1 PAM,Menin MLL FP FL,ClpP mod,TRPML1 ag
Cc1ccc(NCc2nnc(SCC(=O)NCc3ccco3)n2CC2CCCO2)c(C)c1 (configuration not stated),19,5%,-2.3%,5,3.7,-0.3%,0.1
COC(=O)[C@]12CCCCC=C1N(Cc1ccco1)C(=O)[C@H](CC(=O)NCc1cccc3ccccc13)C2,.,.,-0.5%,.,.,-4.7%,-0.7
Cc1cc(NC(=O)CCC(=O)N(CCc2ccccc2)C(C(=O)NC2CCCC2)c2ccco2)no1 (configuration not stated),11,-2%,1.3%,1,3.3,0.8%,0.2
CCc1ccccc1NC(=O)c1cccc(NC(=O)/C=C/c2ccco2)c1,1,20µM*,-1.6%,3,26,-0.2%,2.4
